MT1-MMP promoter = MT1-MMP gene expression reporter suppression – cell-based, luciferase reporter, luminescence (AID 618). MT1-MMP promoter luciferase reporter cells, luminescence. calls from a first round at 10 µM; hits with a dose series show EC50 in µM. actives 0.62% (n = 87,000);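 active = over half of the reporter light lost at 10 µM or EC50 under 50 µM; inactive = the rest and hits that failed the dose series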;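 also: actives suppress MT1-MMP promoter-driven transcription so potencies describe inhibitors; HT1080 fibrosarcoma cells; overnight exposure; toxic or luciferase-blocking compounds were not removed from the actives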
WNV NS2B-NS3 inh = WNV NS2B-NS3 proteinase inhibition; actives 0.18% (n = 65,000); WNV NS2B-NS3 protease, fluorogenic substrate Ex360/Em465; active compounds read low; AID 577; z-score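 (tested at a level between 10 and 100 µM)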;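 active = z-score at -3 or under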;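 also: score is relative to mean and spread of the compound wells of a plate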
Target sequence (P06935 1371-1501 limits assumed): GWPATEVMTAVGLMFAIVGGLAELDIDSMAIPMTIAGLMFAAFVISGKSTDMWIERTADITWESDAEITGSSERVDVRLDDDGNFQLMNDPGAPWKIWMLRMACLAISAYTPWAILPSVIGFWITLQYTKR
Target sequence (P06935 1502-1679 limits assumed): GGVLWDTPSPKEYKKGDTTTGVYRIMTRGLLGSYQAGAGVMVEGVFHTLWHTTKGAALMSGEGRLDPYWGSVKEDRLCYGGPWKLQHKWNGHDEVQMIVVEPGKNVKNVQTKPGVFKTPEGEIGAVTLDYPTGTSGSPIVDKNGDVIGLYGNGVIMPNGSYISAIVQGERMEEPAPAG
Hsc70 ATP site = Hsc70 inhibitors, probe displacement, primary screen, biochemical, fluorescence polarization (AID 568); Hsc70 fluorescence polarization, probe displacement; higher % means a stronger effect; strong numbers were not always called active; displacement, % at 20 µM, or IC50 in µM where a hit was titrated; 83,000 tested, under 10 active;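 active = displacement above 50% without optical interference and an IC50 on retest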;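 also: ATPase domain with a fluorescein-tagged ATP probe; 0% = vehicle and 100% = excess ADP; read after one hour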
Active calls of the source: *; i = inactive; . = no result given. These rows are one share of the data; count on the stated rates, not on these rows.

SMILES | MT1-MMP promoter | WNV NS2B-NS3 inh | Hsc70 ATP site
CCC(=O)NCC(c1cccs1)N1CCOCC1 (stereo not given) | i | 0.04 | 0.9%
COc1ccc(OC)c(S(=O)(=O)N2CCC(C(=O)NCCc3ccc(OC)c(OC)c3)CC2)c1 | i | -0.4 | 0.7%
CCOc1ccc(C2C(C(=O)c3ccc(C)o3)=C(O)C(=O)N2CCN2CCOCC2)cc1OC (stereo not given) | i | -0.06 | -3.5%
Cc1cc(NS(=O)(=O)c2ccc(NC(=O)COc3ccccc3C(C)C)cc2)no1 | i | 0.38 | -2.2%
O=C(Cn1nnc(-c2ccccc2-n2cnnn2)n1)N1CCCCC1 | i | -0.71 | -1.9%
Cc1csc(NC(=O)NC2(C(F)(F)F)Oc3ccccc3O2)n1 | i | -0.35 | 3.3%
O=C(CN1CCc2ccccc2C1)N1CCN(S(=O)(=O)c2ccccc2)CC1 | i | 0.11 | 5.6%
COc1cc(OC)cc(OCC(O)Cn2ccnc2)c1 (stereo not given) | i | -0.3 | 1.3%
Cc1ccsc1C(=O)OCC(=O)N1CC(=O)Nc2ccccc21 | i | 1.6 | -1.4%
CCN(CC)S(=O)(=O)c1ccc(NS(=O)(=O)c2ccc(F)cc2)cc1 | i | . | 2.5%
Nc1nncn1C(=O)CCCOc1ccc(Cl)cc1Cl | i | 1.2 | 0.7%
CN(C)CCOc1ccccc1-c1ccccc1 | i | . | -2.6%
O=C(CCN1C(=O)C2C3C=CC(C3)C2C1=O)Nc1ccccc1F (stereo not given) | i | -1.3 | 0.5%
COc1cccc(-n2nnc3c(=O)n(Cc4ccccc4F)cnc32)c1 | i | -0.39 | 1.9%
O=C(CSc1nnc(Cn2nnc3ccccc32)o1)N(Cc1ccc(F)cc1)c1ccccc1 | i | 1.8 | 0.2%
COc1cc2c(cc1OC)C(C)N(C(=O)CCN1C(=O)C3C4C=CC(C4)C3C1=O)CC2 (stereo not given) | i | -2 | -5.4%
COc1ccccc1C1NC(=O)CS1 (stereo not given) | i | 0.68 | -5.4%
CCOC(=O)N1CCC(N2CC34C=CC(O3)C(C(=O)Nc3ccc(F)cc3)C4C2=O)CC1 (stereo not given) | i | -0.7 | 1.1%
CC12CCC(C(=O)NCCCN3CCOCC3)(OC1=O)C2(C)C (stereo not given) | i | 0.07 | -9.3%
COc1ccccc1N1CCN(S(=O)(=O)c2ccccc2)CC1 | i | -1.6 | 3.2%
COCCNc1nc(-n2nc(C)cc2C)nc2sc3c(c12)CCCC3 | i | 0.59 | -6.1%
CCCN1CCC(N2CCN(c3ccccc3OC)CC2)CC1 | i | 0.49 | 0.5%
COC(=O)c1ccc2c(c1)S(=O)(=O)NC(=NCCCN1CCOCC1)S2 | i | 1.5 | 4.9%
N#CC1=C(N)N(c2ccccc2)C2=C(C(=O)CCC2)C1c1cccs1 (stereo not given) | i | -0.12 | -22%
Cc1ncc(CO)c2cc(S(=O)(=O)c3ccc(F)cc3)c(=O)oc12 | i | 0.54 | 5.4%
COC(=O)c1ccc(C(=O)Nc2ccc(N)cc2N)cc1 | i | -0.6 | -8.0%
O=C(NC1CCS(=O)(=O)C1)Oc1ccccc1 (stereo not given) | i | . | -0.4%
O=[N+]([O-])c1cnccc1Nc1cccc(F)c1 | i | . | 1.7%
CC(C)Cc1cc(C(=O)Nc2ccc3c(c2)OCO3)no1 | i | -0.48 | 1.4%
COC(=O)C1(CO)NC(c2cccs2)C2C(=O)N(c3ccccc3)C(=O)C21 (stereo not given) | i | -0.54 | -2.7%
O=C(O)C[CH2][Ge](=[O])[O][Ge](=[O])[CH2]CC(=O)O | i | . | -1.9%
COc1ccc(NC(=O)c2cccs2)cc1OC | i | -0.84 | -1.3%
CC(C)C(=O)Nc1ccccc1N1CCN(C(=O)c2ccccc2)CC1 | i | -0.99 | 5.7%
CC1(CCc2ccc(O)cc2)NC(=O)NC1=O (stereo not given) | i | . | -2.2%
Cn1c(Cn2c(=O)sc3ccccc32)nnc1SCC(=O)NC1CCCCC1 | i | -0.22 | -1.0%
Cn1nnc2cc(C(=O)N3CCN(c4ccccc4)CC3)ccc21 | i | -0.92 | -3.3%
CCOc1cc2[nH]c(=S)n(CC3CCCO3)c(=O)c2cc1OCC (stereo not given) | i | -0.1 | -3.5%
CN(c1ccccc1)c1nc(N2CCCC2)nc(-n2ccnc2)n1 | i | -0.22 | -2.9%
c1ccc(CNC2=NCCC2)nc1 | i | -0.95 | 0.2%
Cc1ccc2[nH]c(=O)c(CN(CCO)Cc3nnnn3CCc3ccccc3)cc2c1 | i | 0.54 | -4.2%

Reformatted: results already given
Fields – MT1-MMP promoter | WNV NS2B-NS3 inh | Hsc70 ATP site
c1ccc(CNC2=NCCC2)nc1
  i | -0.95 | 0.2%
CC1(CCc2ccc(O)cc2)NC(=O)NC1=O (stereo not given)
  i | . | -2.2%
COc1ccc(NC(=O)c2cccs2)cc1OC
  i | -0.84 | -1.3%
COC(=O)c1ccc2c(c1)S(=O)(=O)NC(=NCCCN1CCOCC1)S2
  i | 1.5 | 4.9%

The list goes on.
SMILES | MT1-MMP promoter | WNV NS2B-NS3 inh | Hsc70 ATP site
CN1CCCC(C(=O)C(C#N)c2ccccc2)C1 (stereo not given) | i | -1.6 | -1.4%
CNS(=O)(=O)c1cccc(C(=O)OCC(=O)c2cc(C)n(-c3ccc4c(c3)OCO4)c2C)c1 | i | -0.36 | 6.8%
C=CCn1c(=O)[nH]c2cc(C(=O)N3CCN(c4cccc(Cl)c4)CC3)ccc2c1=O | i | -0.01 | -5.3%
O=C(NCc1cccnc1)C(C(=O)c1ccc(F)cc1)n1ccccc1=O (stereo not given) | i | -0.65 | 2.1%
CC(Oc1ccc(Cl)cc1Cl)c1nc(-c2ccc(NC(=O)c3cccnc3)cc2)no1 (stereo not given) | i | -0.26 | -13%
Cc1ccc2oc(-c3ccccc3)c(C(=O)O)c(=O)c2c1 | i | . | 0.4%
Cc1ccc2cc(CNC(C)C)c(=O)[nH]c2c1 | i | -0.5 | -6.6%
CN(CCO)c1ncnc2nc[nH]c12 | i | -0.56 | 2.6%
CC(=O)c1ccc(NC2CC(O)C(O)CO2)cc1 (stereo not given) | i | 0.03 | 4.1%
CC(=O)Nc1ccc(S(=O)(=O)N2CCN(c3ccc(C)c(Cl)c3)CC2)cc1 | i | -1.7 | 3.1%
CCOc1ccc(C(=O)Nc2cc(OC)ccc2OC)cc1 | i | -1.2 | -1.1%
COc1ccc(N2CC(C(=O)NC3CC(C)(C)NC(C)(C)C3)CC2=O)cc1 (stereo not given) | i | 1.5 | -0.3%
COC(=O)COc1ccc(S(=O)(=O)N2CCc3ccccc3C2)cc1C | i | . | 7.4%
CCOc1cc(-c2cc(-c3ccc(C)o3)nc(N)c2C#N)ccc1O | i | . | -1.1%
CC(C(=O)N1c2ccccc2Sc2ccccc21)n1nnc(-c2cccs2)n1 (stereo not given) | i | -0.56 | 0.9%
COc1ccc(NC(=O)C2=C(C)C(=O)OC23CCC(C)CC3)cc1Cl (stereo not given) | i | . | -1.8%
Cc1sc2nc(SCC(=O)N3CCN(CCO)CC3)n(-c3ccccc3)c(=O)c2c1C | i | -0.28 | 0.2%
COc1cc(C(=O)N(CCc2ccccc2)C2=CC3CCC(C2)N3C)cc(OC)c1OC (stereo not given) | i | . | 7.9%
COC(=O)c1sc(Nc2ccccc2)nc1C | i | -1.4 | -1.5%
COc1ccc(NC(=O)c2ccco2)cc1NC(=O)c1cc2ccccc2o1 | i | -0.65 | -7.4%
CCOc1ccccc1C1NC(=O)NC(C)=C1C(=O)OC1CCCC1C (stereo not given) | i | -0.2 | -1.6%
COc1ccccc1NC(=O)Oc1ccc(NC(=O)c2ccco2)cc1 | i | -0.73 | -2.9%
Cc1cc(OCCOCCN(C)CCO)cc(C)c1Cl | i | -0.95 | 2.6%
O=C(O)C1=C(C(=O)N2CCN(C(=O)c3ccco3)CC2)CCCC1 | i | 1.3 | -0.8%
Cc1cc(C)nc(Nc2nc(C)c3cc4c(cc3n2)OCO4)n1 | i | 0.25 | -1.8%
c1ccc(-n2nc3c(ccc4cnnc43)[nH]2)cc1 | i | -1.3 | -1.2%
CCOC(=O)c1nnn(-c2nonc2N)c1CN1CCCCCC1 | i | -0.84 | 3.9%
O=C(Nc1ccc(O)c(C(=O)O)c1)c1ccc2c(c1)C(=O)N(CC1CCCO1)C2=O (stereo not given) | i | 0.96 | 0.8%
Cc1sc(NC(=O)CSc2nnc(COc3ccc(Cl)cc3)n2C)c(C#N)c1C | i | 0.53 | 2.9%
COC(=O)c1ccccc1NC(=O)Cn1c(=O)oc2ccc(Cl)cc21 | i | -1.5 | -2.3%
Cc1ccc(-n2ncc3c(=O)n(CC#N)cnc32)cc1C | i | 1.6 | 1.3%
Cc1cc(C)c(C#N)c(SCc2[nH]nc3c2C(c2ccc(F)cc2)C(C#N)=C(N)O3)n1 (stereo not given) | i | . | 2.6%
COCCn1nnnc1C(c1ccc(OC)cc1)N1CCC(C)CC1 (stereo not given) | i | -0.74 | 2.2%
O=C1NCC2=C1C(c1ccccc1)Nc1ccccc1N2 (stereo not given) | i | -0.56 | 3.8%
CCOC(=O)c1cnc2nc(C)[nH]n2c1=O | i | 1.2 | -4.7%
CCn1nnnc1SCC(=O)NCc1cccs1 | i | 0.57 | -1.7%
CCOC(=O)c1ccc(NC(=O)N2CCc3ccccc32)cc1 | i | -0.88 | 3.0%
COc1ccc(N(CC(=O)N2CCN(Cc3ccc4c(c3)OCO4)CC2)S(C)(=O)=O)cc1OC | i | 0.12 | 7.9%
CCC(=O)Nc1cccc(NC(=O)CN2CCN(c3ccccc3OC)CC2)c1 | i | -0.5 | 5.3%
COc1ccc(CCN2C(=O)c3[nH]nc(-c4ccccc4O)c3C2c2ccccc2)cc1OC (stereo not given) | i | -0.54 | -3.2%

As entered above.
`CCOC(=O)c1nnn(-c2nonc2N)c1CN1CCCCCC1` @ Hsc70 ATP site: 3.9%
`COC(=O)c1ccccc1NC(=O)Cn1c(=O)oc2ccc(Cl)cc21` @ WNV NS2B-NS3 inh: -1.5
`Cc1cc(OCCOCCN(C)CCO)cc(C)c1Cl` @ WNV NS2B-NS3 inh: -0.95

Additional structures.
SMILES | MT1-MMP promoter | WNV NS2B-NS3 inh | Hsc70 ATP site
O=C(NCc1cccc(Cl)c1)c1cccnc1 | i | 0.3 | -1.2%
O=S(=O)(Nc1ccc(-c2cn3ccsc3n2)cc1)c1ccc2c(c1)OCCO2 | i | -0.11 | -9.0%
Cc1cc(C(=O)CN2C(=O)NC(C)(c3cccc(Br)c3)C2=O)c(C)n1Cc1ccco1 (stereo not given) | i | -0.17 | -16%
CCOc1[nH]c(/N=C/c2ccco2)c(C#N)c1C#N | i | 0.0093 | 13%
COc1ccc2cc(CN(C(=O)Nc3ccccc3)C3CCCC3)c(=O)[nH]c2c1 | i | 0.98 | -0.5%
OC(c1ccccc1)(c1ccc(F)cc1)C(c1ccccc1)N1CCOCC1 (stereo not given) | i | . | 1.8%
S=C(Nc1ccccn1)c1ccccn1 | i | -0.1 | 4.2%
O=C1N(Cc2ccc(F)cc2Cl)c2ccccc2C12OCCCO2 | i | . | 3.0%
NC(=O)NC(CC(=O)OCC(=O)NC(=O)NCc1ccco1)c1ccc(Cl)cc1 (stereo not given) | i | -0.58 | -5.3%
Cc1cccc(C2NS(=O)(=O)N=C2N)c1 (stereo not given) | i | . | 2.2%
COC(=O)Cc1c(C)c2ccc(OCC(=O)NCc3ccc4c(c3)OCO4)cc2oc1=O | i | -2.2 | -2.9%
COC(=O)C1C(=O)c2c([nH]c(C(=O)OCC3CCCO3)c2C)CC1C (stereo not given) | i | 0.67 | 3.9%
c1ccc(C2=Nn3c(nnc3-c3ccccn3)SC2)cc1 | i | 0.93 | -1.6%
COCC(C)NCc1ccc(C)cc1C (stereo not given) | i | 0.72 | 1.7%
CCCc1cc(C(=O)OC)c(NC(=O)c2cc(C)on2)s1 | i | . | 4.0%
CCOC(=O)CC(=O)CSc1nc2ccccc2c(=O)n1-c1ccc(C(=O)N2CCOCC2)cc1 | i | -0.26 | 0.1%
COCCNC(=O)C(c1ccc(C)o1)N(C(=O)c1snc(C(N)=O)c1N)c1cc(C)cc(C)c1 (stereo not given) | i | 1.3 | 1.0%
CC1=C(OC(=O)c2ccc(Br)cc2)C(C)(C)C(c2ccccc2)OC1=O (stereo not given) | i | . | -4.0%
O=S(=O)(NCC1CCCO1)c1cccc(S(=O)(=O)N2CCCC2)c1 (stereo not given) | i | 1.5 | -3.6%
CC(C)(C)NS(=O)(=O)c1ccc(N2C(=O)c3ccccc3C2=O)cc1 | i | . | 3.1%
COc1ccc2nc(SCC(=O)O)nc(C)c2c1 | i | -1.2 | -0.4%
Cc1cc(C)n(-c2ccc(C(=O)OCC(=O)c3c(N)n(C)c(=O)n(C)c3=O)cc2)n1 | i | -0.81 | 5.7%
CCc1ccccc1NC(=O)c1cccs1 | i | 0.12 | -4.9%
COc1cccc(CNC(=O)C2CCN(S(=O)(=O)c3ccccc3)CC2)c1 | i | -0.29 | 4.3%
C=CCn1sc(N)c(C(=O)OCC)c1=S | i | -1.8 | -0.3%

Entries of single compounds, looked up by structure. Order of values: MT1-MMP promoter, WNV NS2B-NS3 inh, Hsc70 ATP site
`C=CCn1sc(N)c(C(=O)OCC)c1=S` is listed with i, -1.8, -0.3%
`CCc1ccccc1NC(=O)c1cccs1` is listed with i, 0.12, -4.9%

Compound activity as filed in PubChem.
